Source: PubChem BioAssay (National Center for Advancing Translational Sciences (NCATS))
2A Renilla: lowers the Renilla signal of an FMDV 2A StopGo reporter | HEK cells with a luciferase reporter of 2A StopGo recoding | Potency, µM (top dose mostly 57.5 µM), inactives show at the highest dose signal change, negative = less light | 120,000 tested, 0.32% active | AID 1745857; active means well fitted falling curve with a large enough effect; inconclusive means small, poorly fitted or top-dose-only effect; inactive means no such curve, though single readings can be large or run the other way; further: nearly all actives have a fitted effect of over 55% in size; overnight with compound
StopGo FLuc: lowers the firefly signal of an FMDV 2A StopGo reporter | Potency, µM (top dose mostly 57.5 µM), for inactives: top-dose signal change, negative = less light | AID 1745856 | 120,000 tested, 0.23% active | HEK cells with a luciferase reporter of 2A StopGo recoding; active = well fitted falling curve with a large enough effect; inconclusive = small, poorly fitted or top-dose-only effect; inactive = no such curve, though single readings can be large or run the other way; further: nearly all actives have a fitted effect of over 60% in size; overnight with compound
An asterisk follows results filed as active; [ ] = another dose, or the depositor's remark. On the % scale 0 is the no-effect control and ±100 the full control effect; potency means the concentration at half of the fitted maximal effect. An excerpt, so the mix of outcomes need not match the whole.

What do the screens show for `Cc1cccc(N2C(=O)c3ccccc3NC2c2cnc3ccccc3n2)c1` (stereo not given)?
2A Renilla: 87%[activator]; StopGo FLuc: 101%[activator]

Results for CCc1ccc2[nH]c(C(=O)O)cc2c1 ?
2A Renilla: 6%; StopGo FLuc: 28%

Results for CCc1ccccc1NC(=O)Cn1nnc(C(=O)NCc2cccs2)c1N ?
2A Renilla: 68%[activator]; StopGo FLuc: 110%[activator]

How did CCC(C)C(NC(=O)c1ccc(C(F)(F)F)cc1)C(=O)O (stereo not given) do in these assays?
2A Renilla: -7%; StopGo FLuc: -3%

How did O=C(CCSc1ccc(Cl)cc1)Nc1ccc(CSc2ccccc2)cc1 do in these assays?
2A Renilla: 16%; StopGo FLuc: 17%

How did Cc1[nH]c2ccccc2c1C(=O)C(C)Sc1nnc(CCC(N)=O)n1CC(C)C (stereo not given) do in these assays?
2A Renilla: -1%; StopGo FLuc: 3%

What do the screens show for `CCOc1ccccc1NC(=O)c1ccc2ccccc2n1`?
2A Renilla: 4%; StopGo FLuc: 0%

What do the screens show for `CSc1cccc(NC(=O)c2ccc(NC(=O)N3CCSc4nc(C)cc(C)c43)cc2)c1`?
2A Renilla: -23%; StopGo FLuc: 47%[activator]

How did CN(C)c1cc(C(=O)NC(C2CC2)C2CC2)ccn1 do in these assays?
2A Renilla: 14%; StopGo FLuc: 0%

Results for COc1ccc(-n2c(-c3cccc(F)c3)nc3c(cnn3-c3ccc(C)cc3)c2=O)cc1 ?
2A Renilla: -10%; StopGo FLuc: -16%

Results for Cc1cccc(NC(=O)c2ccc(CNC(N)=O)cc2)c1C ?
2A Renilla: -16%; StopGo FLuc: 14%

How did O=C(CC1C(=O)N(c2ccccc2)C(=O)N1Cc1ccc2c(c1)OCO2)Nc1ccccc1 (stereo not given) do in these assays?
2A Renilla: 129%[activator]; StopGo FLuc: -17%

How did O=C(Nc1ccc(Cl)cc1)N1CCN(c2cc(=O)n3nc(-c4ccco4)sc3n2)CC1 do in these assays?
2A Renilla: -8%; StopGo FLuc: 3%

What do the screens show for `CCC(C)NC(=O)c1cc(C2CC2)nc2ccccc12` (stereo not given)?
2A Renilla: 1%; StopGo FLuc: -9%

How did CCCCn1nnnc1CN1CCCC1c1ccc2c(c1)OCCO2 (stereo not given) do in these assays?
2A Renilla: 133%[activator]; StopGo FLuc: -4%

How did O=c1c(S(=O)(=O)c2ccccc2)cn(Cc2ccccc2)c2cc(N3CCOCC3)c(F)cc12 do in these assays?
2A Renilla: 56%[activator]; StopGo FLuc: -3%

Results for CN(CC(=O)Nc1cccc(F)c1)C(=O)c1cc2ccccc2cc1O ?
2A Renilla: 116%[activator]; StopGo FLuc: 12%

What do the screens show for `CC(C)=CC(=O)NC(c1cccs1)C(C)C` (stereo not given)?
2A Renilla: -4%; StopGo FLuc: -9%

What do the screens show for `Cc1cc(C)cc(-n2c(C)nc3cc(C(=O)NCc4ccccc4Cl)ccc32)c1`?
2A Renilla: 99%[activator]; StopGo FLuc: 2%

Results for Nc1nnnn1NCc1ccc(-c2ccc(F)cc2)o1 ?
2A Renilla: 0%; StopGo FLuc: 0%

Results for CCOC(=O)Cc1ccc(NC(=O)NCc2c(-n3cccc3)sc3c2CCCC3)cc1 ?
2A Renilla: -4%; StopGo FLuc: -4%

How did O=C(O)Cn1c(=O)c2c(ncn2Cc2ccccc2)n(Cc2ccccc2)c1=O do in these assays?
2A Renilla: 6%; StopGo FLuc: 0%

Results for COCCOCCCNC(=O)CCNC(=O)c1ccc(C(C)(C)C)cc1 ?
2A Renilla: -1%; StopGo FLuc: 30%[activator]

What do the screens show for `O=C(c1ccc(OCc2ccncc2)cc1)N1CCN(C2CCS(=O)(=O)C2)CC1` (stereo not given)?
2A Renilla: -1%; StopGo FLuc: 0%

What do the screens show for `CCCSc1nc2c(c(=O)n(C)c(=O)n2C)n1Cc1cccc2ccccc12`?
2A Renilla: -19%; StopGo FLuc: -13%

Results for Cc1cccc(NS(=O)(=O)c2ccc3[nH]c(=O)ccc3c2)c1C ?
2A Renilla: 54%[activator]; StopGo FLuc: 0%

Results for COc1cccc2c1cc1c(=O)n(CC(=O)N3CCN(c4ccccc4)CC3)nc(C)n12 ?
2A Renilla: -12%; StopGo FLuc: -10%

What do the screens show for `Cc1ccc(C(=O)C2CCN(c3nccc(C(F)(F)F)n3)CC2)c(C)c1`?
2A Renilla: 0%; StopGo FLuc: -1%

Results for O=C(COC(=O)c1cc2ccccc2oc1=O)NCC1CCCCC1 ?
2A Renilla: 7%; StopGo FLuc: 5%

How did CCOc1ccccc1N(C)C(=O)c1cc2c(=O)n(CC)c3ccccc3c2s1 do in these assays?
2A Renilla: 26%; StopGo FLuc: -12%

Results for COCCNc1nc2c(c(=O)[nH]c(=O)n2C)n1CCC(C)C ?
2A Renilla: 28%; StopGo FLuc: 0%

How did COc1ccc(-c2c(C)nn3c2NC(=O)CCC3=O)cc1S(=O)(=O)Nc1ccccc1F do in these assays?
2A Renilla: 75%[activator]; StopGo FLuc: 4%

What do the screens show for `CCCS(=O)(=O)c1nc(S(=O)(=O)c2ccc(C)cc2)c(NCC(C)C)s1`?
2A Renilla: 214%[activator]; StopGo FLuc: -3%

What do the screens show for `Cc1c(CNCc2ccc(OC(C)C)cc2)c(C(=O)O)c(C)n1Cc1ccc(Cl)cc1`?
2A Renilla: -8%; StopGo FLuc: -13%

What do the screens show for `COc1cc2c(C(=O)N3CCN(c4cccc(C(F)(F)F)c4)CC3)cn(CC(C)C)c(=O)c2cc1OC`?
2A Renilla: inconclusive; StopGo FLuc: -42%

How did Cc1ccc(OCC(=O)Nc2nonc2-c2ccc(Br)cc2)cc1 do in these assays?
2A Renilla: -12%; StopGo FLuc: -2%

How did COC(=O)c1cccc(C(=O)NCc2cccc(OC)c2)c1 do in these assays?
2A Renilla: 2%; StopGo FLuc: 0%

What do the screens show for `Cc1ccc(C(=O)N2CCN(c3cccc(C(F)(F)F)c3)CC2)s1`?
2A Renilla: -11%[1.06 µM]; StopGo FLuc: 0%

Results for Fc1ccc(CNc2ccc3nnc(C(F)(F)F)n3n2)cc1 ?
2A Renilla: -1%; StopGo FLuc: 6%

Results for CCc1ccc(NC(=O)Cn2cc(S(=O)(=O)c3ccc(OC)cc3)c(=O)c3ccccc32)cc1 ?
2A Renilla: -8%; StopGo FLuc: 1%

How did CC(C)C1CC(C)(C)c2ccc(O)cc21 (stereo not given) do in these assays?
2A Renilla: -2%; StopGo FLuc: 7%

How did Cc1cc(CSCC(=O)Nc2ccc3c(c2)CCC3)no1 do in these assays?
2A Renilla: 6%; StopGo FLuc: 62%[activator]

Results for COc1ccc(C(=O)NCC(c2ccc(N(C)C)cc2)N2CCOCC2)cc1 (stereo not given) ?
2A Renilla: -6%; StopGo FLuc: -13%

Results for CC(C)(C)c1ccc(C2CC2C(=O)N/N=C\C(Br)=C\c2ccccc2)cc1 (stereo not given) ?
2A Renilla: -14%; StopGo FLuc: 33%[activator]

How did COCCNC(C)C(=O)C12CC3CC(CC(C3)C1)C2 (stereo not given) do in these assays?
2A Renilla: 0%; StopGo FLuc: -7%

Results for Cc1nc(SCc2cccc(Cl)c2)nc2c1CCCC2 ?
2A Renilla: -7%; StopGo FLuc: 24%

How did O=C(Nc1ccccc1)c1cc2c(-c3ccccc3)nn(-c3ccccc3)c2s1 do in these assays?
2A Renilla: -5%; StopGo FLuc: 2%

How did Cc1ccc(S(=O)(=O)c2cn(Cc3ccccc3)c3cc(N4CCCC4)c(F)cc3c2=O)c(C)c1 do in these assays?
2A Renilla: 3%; StopGo FLuc: -14%

Results for CCOC(=O)c1nc(N(CC)Cc2ccccc2)c2ccccc2n1 ?
2A Renilla: -9%; StopGo FLuc: -4%

How did CC(C)(C)CNC(=O)c1[nH]cnc1C(=O)NCC1CCCCC1 do in these assays?
2A Renilla: 12%; StopGo FLuc: 4%

What do the screens show for `CCOCCCNC(=O)CC1CCCC1`?
2A Renilla: -4%; StopGo FLuc: 0%

What do the screens show for `CCC(CC)C(=O)NCc1nc2cccnc2n1Cc1ccc(F)cc1`?
2A Renilla: -9%; StopGo FLuc: -13%

How did Cc1cc(C)cc(NC(=S)NNC(=O)C(N)=O)c1 do in these assays?
2A Renilla: 5%; StopGo FLuc: 5%

What do the screens show for `COc1cc2ccccc2cc1C(=O)Nc1ccc2oc(-c3ccncc3)nc2c1`?
2A Renilla: -2%; StopGo FLuc: 9%

What do the screens show for `O=C(COc1cc2oc(=O)cc(-c3ccccc3)c2cc1Cl)NC1CC1`?
2A Renilla: 4%; StopGo FLuc: 8%

How did Cc1ccc(-n2ncc3c(N4CCN(c5ccc(F)cc5)CC4)ncnc32)cc1 do in these assays?
2A Renilla: 7%; StopGo FLuc: -8%

What do the screens show for `Cc1ccc(-c2[nH]ncc2CNC(C)c2cccs2)cc1` (stereo not given)?
2A Renilla: 0%; StopGo FLuc: 3%

Results for Cn1c(=O)c2c(ncn2CC(=O)NCC(C)(c2ccccc2)c2ccccc2)n(C)c1=O ?
2A Renilla: -14%; StopGo FLuc: -15%

How did Cc1c(-c2ccc(Cl)cc2)c(=O)oc2c(CN3CCN(CCO)CC3)c(O)ccc12 do in these assays?
2A Renilla: -4%; StopGo FLuc: -17%

Results for CCCCCCn1c(SCC)nc2c1c(=O)[nH]c(=O)n2C ?
2A Renilla: 11%; StopGo FLuc: 21%

What do the screens show for `Cc1ccc(NC(=O)C(=O)NCc2ccc(Cl)cc2)cc1`?
2A Renilla: 15%; StopGo FLuc: 17%

How did CN(Cc1ccccc1)c1ccc(-c2nc(-c3ccccn3)no2)cc1[N+](=O)[O-] do in these assays?
2A Renilla: 23%; StopGo FLuc: 162%[activator]

What do the screens show for `CCC(C)NC(=O)[C@H](C)NC(=O)N1CCn2c1nc1ccccc12` (stereo not given in full)?
2A Renilla: -4%; StopGo FLuc: 2%

Results for CC(=O)Nc1ccc(C)cc1S(=O)(=O)N1CCCCCC1c1ccc(C)s1 (stereo not given) ?
2A Renilla: 36%[activator]; StopGo FLuc: -12%

How did COc1cccc(CNC(=O)c2cc(-c3cccs3)nc3ccccc23)c1 do in these assays?
2A Renilla: -4%; StopGo FLuc: 1%

What do the screens show for `CCc1ccc(C(=O)c2cnc3cc(OC)c(OC)cc3c2N2CCOCC2)cc1`?
2A Renilla: -5%; StopGo FLuc: -16%

How did COc1ccccc1CN1COc2ccc3c(oc(=O)c4ccccc43)c2C1 do in these assays?
2A Renilla: 7%; StopGo FLuc: -8%

Results for COc1cc(C#N)ccc1OC(C)C(=O)Nc1cccc(C)c1 (stereo not given) ?
2A Renilla: 5%; StopGo FLuc: 15%

How did Cc1oc2cc(OCC(=O)O)ccc2c(=O)c1-c1ccc(Cl)cc1 do in these assays?
2A Renilla: 1%; StopGo FLuc: -10%

How did O=C(c1ccsc1)N(Cc1cccs1)C1CC1 do in these assays?
2A Renilla: -3%; StopGo FLuc: -4%

Results for CNC(=O)NC(=O)CSc1nc(-c2ccco2)nc2ccccc12 ?
2A Renilla: -13%; StopGo FLuc: 9%

Results for Cc1ccn2cc(-c3ccc(NS(=O)(=O)c4ccc5c(c4)OCCO5)cc3)nc2n1 ?
2A Renilla: 33%[activator]; StopGo FLuc: 28%

Molecules shown so far containing a tert-butyl group (three):
Results for COCCOCCCNC(=O)CCNC(=O)c1ccc(C(C)(C)C)cc1 ?
2A Renilla: -1%; StopGo FLuc: 30%[activator]

Results for CC(C)(C)c1ccc(C2CC2C(=O)N/N=C\C(Br)=C\c2ccccc2)cc1 (stereo not given) ?
2A Renilla: -14%; StopGo FLuc: 33%[activator]

How did CC(C)(C)CNC(=O)c1[nH]cnc1C(=O)NCC1CCCCC1 do in these assays?
2A Renilla: 12%; StopGo FLuc: 4%

Compounds listed so far containing a COOH group (5):
Results for CCc1ccc2[nH]c(C(=O)O)cc2c1 ?
2A Renilla: 6%; StopGo FLuc: 28%

How did CCC(C)C(NC(=O)c1ccc(C(F)(F)F)cc1)C(=O)O (stereo not given) do in these assays?
2A Renilla: -7%; StopGo FLuc: -3%

How did O=C(O)Cn1c(=O)c2c(ncn2Cc2ccccc2)n(Cc2ccccc2)c1=O do in these assays?
2A Renilla: 6%; StopGo FLuc: 0%

What do the screens show for `Cc1c(CNCc2ccc(OC(C)C)cc2)c(C(=O)O)c(C)n1Cc1ccc(Cl)cc1`?
2A Renilla: -8%; StopGo FLuc: -13%

How did Cc1oc2cc(OCC(=O)O)ccc2c(=O)c1-c1ccc(Cl)cc1 do in these assays?
2A Renilla: 1%; StopGo FLuc: -10%

Next records
Results for COc1ccc(-c2cc3ccc(O)cc3oc2=O)c(OC)c1 ?
2A Renilla: 117%[activator]; StopGo FLuc: 138%[activator]

Results for CC1CCN(CCCNC2CCCC2)CC1 ?
2A Renilla: -11%; StopGo FLuc: -18%

What do the screens show for `O=C(Cn1cc(SCc2ccc(Cl)cc2)c2ccccc21)N1CCCC1`?
2A Renilla: 1%; StopGo FLuc: 87%[activator]

How did Cc1oc2ccc(O)c(CN3CCOCC3)c2c1C(=O)Nc1cccc(C(F)(F)F)c1 do in these assays?
2A Renilla: -5%; StopGo FLuc: -9%

What do the screens show for `COc1ccc(C2=C(C)C(N3CCC(C(=O)NCc4ccc(C)o4)CC3)=NS2(=O)=O)cc1`?
2A Renilla: 18%; StopGo FLuc: 12%

How did Cc1ccc(NC(=O)Cn2c(=O)n(CCCCC(=O)NCc3ccccc3Cl)c(=O)c3ccccc32)cc1 do in these assays?
2A Renilla: -8%; StopGo FLuc: -10%

Results for Cn1c(=O)c2c(nc(N3CCC(Cc4ccccc4)CC3)n2CC(=O)c2ccccc2)n(C)c1=O ?
2A Renilla: -16%; StopGo FLuc: -7%
